Screening results deposited in PubChem by ICCB-Longwood Screening Facility, Harvard Medical School.
HCMV NEC inh: disrupts HCMV UL50-UL53 complex binding. inhibition, % (test concentration not listed). 190,000 tested, 0.15% active. HTRF UL50-UL53 interaction, normalized percent inhibition;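 active = both replicates at 50% or more, plus weaker picks with an unusually low signal ratio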;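 also: stock transfer was 100 nL into about 20 µL; 0% = negative control wells and 100% = wells with untagged competitor protein; inactives centre near -12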
Active calls of the source: *; & = joins results of further samples.

mol | HCMV NEC inh
COc1ccc(NC(=O)CSc2nc(C)cc(=O)[nH]2)cc1 | -4.7
CC(O)CNc1ncnc2c1c(-c1ccccc1)cn2-c1ccccc1 (centres undefined) | -15.0
CC1CCCCC1NC(=O)CCn1c(=O)sc2ccccc21 (centres undefined) | 1.6
COc1cccc(NC2SC(=O)N(c3ccccc3)C2=O)c1 (centres undefined) | 1.5
CNC(=O)c1ccc(N2C(=S)N(c3cnc(C#N)c(C(F)(F)F)c3)C(=O)C23CCC3)cc1F | -3.8
COc1ccccc1Oc1ccc(S(=O)(=O)NCc2ccccn2)cc1 | 6.8
O=C(c1ccc(Cl)c(Cl)c1)N1CCC(F)(CO)CC1 | -10.3
CC1(C)Cc2c(-c3ccccc3)c(-c3ccc(Cl)cc3)c(CC(=O)O)n2C1 | 9.3
Cc1cccnc1NC(=O)C(C)(C)C | -2.4
O=S(=O)(c1cccc2cccnc12)N1CCCCC1 | -17.3
CCOC(=O)CSc1nc(C)c2ccc(C)cc2n1 | -5.8
CCOc1cccc2sc(N)nc12 | -7.9
CCOC(=O)c1csc(NC(=O)c2sc3ccccc3c2Cl)n1 | -22.0
COC(=O)[C@@H](N)CSC/C=C(\C)CC/C=C(\C)CCC=C(C)C | -5.2
CCN(CC)CC(O)Cn1c(-c2ccc(OC)cc2)cc2ccccc21 (centres undefined) | 0.3
CC(=O)Nc1ccc(OCC(O)CN2CCc3ccccc3C2)cc1 (centres undefined) | -6.5
Cc1ccc(N2C(=O)N(CC(=O)c3ccccc3)c3ccccc3S2(=O)=O)cc1 | -24.2
CC(C)Oc1cc(C(=O)N2CCC(N3CCCCC3)CC2)ccc1Nc1nnc(Cl)c(Nc2ccccc2S(C)(=O)=O)n1 | -18.1
CCC(CO)Nc1ncnc2c1cnn2-c1ccccc1 (centres undefined) | -11.5
CN1C(=O)N(Cc2ccccc2)C2(CCN(Cc3nc4ccccc4n3C)CC2)C1=O | -8.5

The final 6 records of the part before are carried over, then new ones follow:
mol | HCMV NEC inh
CCN(CC)CC(O)Cn1c(-c2ccc(OC)cc2)cc2ccccc21 (centres undefined) | 0.3
CC(=O)Nc1ccc(OCC(O)CN2CCc3ccccc3C2)cc1 (centres undefined) | -6.5
Cc1ccc(N2C(=O)N(CC(=O)c3ccccc3)c3ccccc3S2(=O)=O)cc1 | -24.2
CC(C)Oc1cc(C(=O)N2CCC(N3CCCCC3)CC2)ccc1Nc1nnc(Cl)c(Nc2ccccc2S(C)(=O)=O)n1 | -18.1
CCC(CO)Nc1ncnc2c1cnn2-c1ccccc1 (centres undefined) | -11.5
CN1C(=O)N(Cc2ccccc2)C2(CCN(Cc3nc4ccccc4n3C)CC2)C1=O | -8.5
N=C(N)c1ccc(N2CCN(C3CCN(CC(=O)O)CC3)CC2)cc1 | -1.0
CN(CCc1ccccn1)S(=O)(=O)c1ccc2c3c(cccc13)C(=O)N2 | -51.2
CC(Oc1ccccc1)c1ccnn1S(C)(=O)=O (centres undefined) | -6.8
O=C(CC12CC3CC(CC(C3)C1)C2)N1CCCCC1 | -12.4
O=C(NC1CC(O)c2sccc21)C(F)(F)F (centres undefined) | -5.8
CC(=O)OCC(=O)[C@@]1(O)[C@H](C)C[C@H]2[C@@H]3CCC4=CC(=O)C=C[C@]4(C)[C@@]3(F)[C@@H](O)C[C@@]21C | -13.8
O=C(CSc1nccn1-c1ccccc1)NCc1ccc2c(c1)OCO2 | -1.6
CC(=O)Nc1ccc2nc(NC(=O)c3ccco3)sc2c1 | -4.3
COc1ccc(-c2c(C)oc3cc(OC)ccc3c2=O)cc1 | -15.0
Cc1sc2ncnc(Nc3ccc4c(c3)OCO4)c2c1C | -13.1
CN(C)c1ccc(/C=C2/C(=O)Nc3ccccc32)cc1 | -64.7
S=c1nc(-c2ccccc2)[nH]c2ccccc12 | -9.5
CCCCC[C@H](O)/C=C/[C@H]1[C@H](O)CC(=O)[C@H]1C/C=C\CCCC(=O)O | -19.9&-19.9
O=C(c1ccc2c(c1)OCO2)N1CCc2ccccc21 | -1.3
O=C(CN1C(=O)S/C(=C\C=C\c2ccccc2)C1=O)Nc1ccc(O)cc1 | -15.0
O=C(CCCC[C@@H]1SC[C@@H]2NC(=O)N[C@@H]21)NCCCC[C@H](NC(=O)CCN1C(=O)C=CC1=O)C(=O)O | -29.6&-29.6
COc1ccc(-n2ccnc2)cc1 | -18.1
CCN(CC)C(=O)Oc1c(I)cc(Cl)c2cccnc12 | 4.1
CN(C(=O)C(C)(C)C)c1nnc(C23CC4CC(CC(C4)C2)C3)s1 | 1.6
NCCC[C@H](N)CC(=O)N[C@H]1CNC(=O)[C@H]([C@H]2C[C@H](O)NC(N)=N2)NC(=O)/C(=C/NC(N)=O)NC(=O)[C@H](CO)NC(=O)[C@H](CO)NC1=O | -1.6
C#C[C@]1(O)CC[C@H]2[C@@H]3CCC4=CC(=O)CC[C@@H]4[C@@H]3CC[C@@]21C | -1.8
CSCCC(C(=O)O)n1c(O)c(/C=C2\C=Nc3ccccc32)sc1=S (centres undefined) | -95.0
O=C(O)CCC(=O)NCc1ccc2[nH]c3c(c2c1)CCCC3 | -7.9
O=C(O)C(Cc1ccccc1[N+](=O)[O-])=NNC1=NC(c2ccc(Cl)c(Cl)c2)CS1 (centres undefined) | -354.8
CCCCC[C@](C)(O)/C=C/[C@H]1[C@H](O)CC(=O)[C@@H]1CCCCCCC(=O)O | -16.8&-16.8
CCOC(=O)C(C)Sc1nc2c([nH]c3ccccc32)c(=O)n1-c1ccc(F)cc1 (centres undefined) | -3.9
COC(=O)Nc1ccc(SCC(=O)N(c2ccccc2)C(C)C)cc1 | -8.7
Cc1cc2cc(CNC(=O)COc3ccccc3)ccc2n1C | -7.7
Cc1ccc(-n2nc3c(c2NC(=O)C(C)(C)C)CSC3)cc1 | -0.8
C=C1C(C)(C)[C@H]2CC[C@]1(C(=O)N1CCC(n3cc(CCCC)nn3)CC1)C2 | -22.4
C=CCn1c(SCC(=O)c2ccccc2)nnc1-c1ccncc1 | -1.7
O=C(OC(c1ccccc1)c1nccc2ccccc12)c1ccco1 (centres undefined) | -14.5
O=C(CSc1ncnc2ccccc12)NCc1ccccc1 | -9.3
Cc1cc2cc(CNC(=O)C3CCCC3)ccc2[nH]1 | -10.6
CCOc1ccc(-c2n[nH]c(C(F)(F)F)c2Oc2ccccc2)c(O)c1C | -12.0
COc1cc2ncnc(Nc3ccc(OCc4ccccc4)cc3)c2cc1OC | -5.8
N#CC(=C(N)Sc1ccc(N)cc1)c1ccccc1C(F)(F)F | 2.4
COc1ccc(-c2cccc(C(=O)c3nccn3C)c2)c(C)c1 | -21.3
Cc1ccc(NC(=O)c2csc(Cc3ccccc3)n2)cn1 | -6.6
Cc1ccccc1Oc1ccc(S(=O)(=O)N2CCOCC2)cc1 | -0.4
COc1ccc(N/C=C(\C#N)c2nc(-c3ccc4c(c3)OCO4)cs2)cc1 | -8.8
c1ccn2cc(CN3CCOCC3)nc2c1 | 0.6
CCCC(=O)Nc1nnc(SCC(=O)N2CCc3ccccc32)s1 | -10.4
C[C@]12C=CC(=O)C=C1CC[C@@H]1[C@H]2C(=O)C[C@@]2(C)[C@H]1CC[C@@]2(O)C(=O)CO | -9.7
C=C(C)C(=O)Nc1ccc(-c2nc3cc(NC(=O)C(=C)C)ccc3o2)cc1 | 0.6
Cn1c(/C(C#N)=N/O)nc2ccccc21 | -32.3
Cc1ccc(NS(=O)(=O)C(F)(F)F)cc1 | 11.6&-8.0
COc1cc(N)c(Cl)cc1C(=O)NC1CCN(Cc2ccccc2)CC1 | -16.1
CC(=O)OC1C[C@@H]2CC[C@@H]3[C@@H](CC[C@]4(C)C(OC(C)=O)C([N+]5(C)CCCCC5)C[C@@H]34)[C@@]2(C)CC1N1CCCCC1 (some centres undefined) | 10.6
CC(C)ON(CC(=O)NO)S(=O)(=O)c1ccc(-c2ccccc2)cc1 | -9.6&-9.6

(list continues)
mol | HCMV NEC inh
Cc1cc2ccccc2n1CCNC(=O)Cc1cccs1 | 0.6
CCCCCCCCCCCCCCCC(=O)OC[C@H](COP(=O)([O-])OCC[N+](C)(C)C)OC(=O)CCCCCCCCCCCCCCC | -15.1&-15.1
CCS(=O)(=O)N1CCN=C1SCc1ccc(C)cc1 | -3.6
Nc1c(CC(=O)O)cccc1C(=O)c1ccccc1 | -1.6
CCN1CCCC1CNC(=O)c1nn(CCOC)c2c1CN(Cc1c(C)nc3sccn13)CC2 (centres undefined) | -5.3
COc1cccc(NC(=O)CSc2ncnc3c2oc2ccccc23)c1 | -6.0
CN(C)c1oc(-c2ccccc2)nc1C#N | 19.7
CCC(C)Cn1c(CO)nc2ccccc21 (centres undefined) | 2.7
CCCCC[C@H](O)/C=C/[C@@H]1[C@@H](C/C=C\CCCC(=O)NCC)[C@@H](O)C[C@H]1O | -3.4&-3.4
O=C(CC1Sc2ccc(C(F)(F)F)cc2NC1=O)NC1CCCCC1 (centres undefined) | -14.8
CC(C)Oc1ccc(-c2[nH]ncc2-c2ccc(F)cc2)c(O)c1 | 4.0
O=C(Nc1ccccc1)c1nc[nH]c1C(=O)Nc1ccccc1 | -13.2
O=C1CC(Nc2ccc(N3CCOCC3)cc2)C(=O)N1 (centres undefined) | -2.9
CCCCCCCCCCCCCCCCCCOC[C@H](COP(=O)([O-])OCC[N+](C)(C)C)OC(C)=O | -2.6&-2.6&-9.5
C=C(C)Cn1c(CNC(=O)c2cccs2)nc2ccccc21 | 3.0
O=S(=O)(/C=C/c1ccccc1)N1CCN(Cc2ccccc2)CC1 | -4.7
CCC1C(=O)N(C)CCN1C(=O)Nc1nc(C)ns1 (centres undefined) | -10.4&-10.4
CCCC(NC(=O)c1cc(C)oc1C)c1ccccc1 (centres undefined) | -10.3
COc1ccc(CCNC(=O)C2c3ccccc3C(=O)N2C2CCCCCC2)cc1OC (centres undefined) | -8.3
CCN1CCc2c(OCC(=O)NCc3ccco3)cccc2C1=O | -15.7
Oc1ccc(-c2nc(-c3ccccc3)c3ccccn23)cc1 | -21.0
O=C(NC(Cc1ccccc1)c1nc2ccccc2[nH]1)c1ccccc1 (centres undefined) | 1.3
O=C(OC1Cc2c(O)cc(O)cc2OC1c1cc(O)c(O)c(O)c1)c1cc(O)c(O)c(O)c1 (centres undefined) | -30.6&-21.1
CC(=O)Nc1sc(-c2ccccc2)nc1-c1ccccc1 | -0.9
Cc1ccc(C(=O)CSc2nnc3[nH]c(=O)cc(C)n23)cc1 | -11.2
CC(NC(=O)C(c1ccccc1)c1ccccc1)C(=O)Nc1ccc(Br)cc1 (centres undefined) | -15.5
COC(=O)c1c(C(=O)OC)c2n(c1C)CCC2 | -1.0
CC(C)Cn1c(CCCNC(=O)C(C)(C)C)nc2ccccc21 | -7.5
c1ccc(CNc2nnc(-c3cccs3)c3ccccc23)cc1 | -16.6&-11.4
CC(=O)N1CCc2c(sc(NC(=O)C(C)C)c2C(N)=O)C1 | -9.2
CCOC(=O)C1CCN(CC(O)COCc2ccc(Cl)cc2)CC1 (centres undefined) | -12.5
CCCC[C@@H](C)/C=C(C)/C=C(\C)C(=O)NC1=C[C@@](O)(/C=C/C=C/C=C/C(=O)NC2=C(O)CCC2=O)[C@@H]2O[C@@H]2C1=O | -12.8
Clc1ncc(CSCc2ccccc2)s1 | -7.5
C=C(C)CSC1=C(C#N)C(c2sccc2C)CC(=O)N1 (centres undefined) | 3.2
O=[N+]([O-])c1ccccc1S(=O)(=O)NCC1CCC(CNCC2CCc3ccccc3C2)CC1 (centres undefined) | -31.4
Nc1[nH]ncc1-c1ccsc1 | -4.8
Cc1cccc(C)c1NC(=O)C[N+](C)(C)C | -4.0
CCN(CC)S(=O)(=O)c1ccc(-c2nc3ccccc3s2)cc1 | 3.1
CCN(CC)C(=O)C12CC3CC(CC(Cl)(C3)C1)C2 | 6.6&-1.3
Cn1nc(C(F)(F)F)c(C#N)c1Oc1ccccc1 | 3.8
COC(=O)c1sc2ccccc2c1NC(=O)COc1ccc(Cl)cc1 | -14.0
CC(=O)NCS(=O)(=O)c1ccc(C)cc1 | -18.7
COc1ccc2c(C)cc(SCC#N)nc2c1 | -17.4
CC(C)CC(NC(=O)C(CCc1ccccc1)NC(=O)CN1CCOCC1)C(=O)NC(Cc1ccccc1)C(=O)NC(CC(C)C)C(=O)[C@@]1(C)CO1 (some centres undefined) | -4.1
O=C(CSc1cnc2ccccc2n1)N1CCN(c2ccc(F)cc2)CC1 | -20.9
CCOC(=O)c1cnn(-c2ccccn2)c1N | -7.5
CC(C)C(=O)NCCn1ccc2ccccc21 | -3.1
O=C(NCCCN1CCCC1)C1CCC(=O)N1C1CCCCC1 (centres undefined) | 2.1
O=C(NCSc1ccnc(SCNC(=O)c2ccccc2)n1)c1ccccc1 | 1.5
COc1ccc(-c2cc3ccccc3n2CC(O)CN2CCCCCC2)cc1 (centres undefined) | -2.1

(listing goes on)
mol | HCMV NEC inh
Nc1nc(-c2ccc(S(=O)(=O)N3CCOCC3)cc2)cs1 | -24.9
COc1ccc(C2c3c(oc4ccccc4c3=O)C(=O)N2CCCO)cc1 (centres undefined) | -8.7
Cc1ccc2c(c1)N(Cc1nc(C(C)(C)C)no1)C(=O)CO2 | -11.4&-11.4
COc1ccc(-n2cnc3cc(C(=O)NCc4cccnc4)ccc32)cc1 | -12.5
CS(=O)(=O)c1ccc(-c2nc(-c3ccc(F)cc3)c(-c3ccncc3)[nH]2)cc1 | -4.5
CCC(=O)Nc1c2c(nn1-c1ccc(C)cc1)CSC2 | -5.6
O=S(=O)(NO)c1ccccc1 | -17.2&-17.2
O=C(Nc1nnc(-c2ccc(Cl)cc2Cl)s1)c1cccc(F)c1 | -12.9
CCCCCCCCCC(=O)N[C@H](CN1CCOCC1)[C@H](O)c1ccccc1 | 3.1
Cc1ccc(C)n1NC(=O)c1ccco1 | 0.2

The list is partial (hit frequency here may not be typical).
